Menin MLL FP FL – inhibitors of human menin-MLL interaction, wild-type MLL peptide; AID 1766; FP activity change, % at 61.4 µM; 290,000 tested, under 10 active; Fluorescence polarization, fluorescein-MLL peptide displacement from menin; inconclusive = falling polarisation curve, or a change in total fluorescence; inactive = total fluorescence flat and polarisation flat or rising; no compound was filed as active; the % refers to the polarisation; negative = inhibition;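 also: % of control where 0% means no effect; inhibitors lower the polarisation; unlabelled MLL peptide was the positive control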
ClpP mod – qHTS Assay for Activators of ClpP; ATP-dependent Clp protease proteolytic subunit (Bacillus subtilis (strain 168)), P80244; purified B. subtilis ClpP, FRET peptide cleavage, 20 min; Potency, µM (titrated, usually from 57.5 µM), without a hit: top-dose activity change, negative = active; 340,000 tested, 1.9% active; active = well fitted falling curve with a large enough effect; inconclusive = small, poorly fitted or top-dose-only effect; inactive = no such curve, though single readings can be large or run the other way; also: potency is read from the fitted curve at half-maximal effect; the source files actives as falling curves though it sought activators and does not explain the sign; nearly all actives have a fitted effect of over 65% in size; many hits overshoot -100%
Target sequence (P80244 whole entry, looked up): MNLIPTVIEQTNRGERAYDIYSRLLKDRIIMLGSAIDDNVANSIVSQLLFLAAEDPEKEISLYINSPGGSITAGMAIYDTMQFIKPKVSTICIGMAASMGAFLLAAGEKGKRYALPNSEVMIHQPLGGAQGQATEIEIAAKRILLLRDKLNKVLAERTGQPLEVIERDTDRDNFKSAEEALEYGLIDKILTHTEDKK
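FRET quenching reversal measured ClpP activation: 10 microg/mL B. subtilis ClpP at pH 8 with the FRET-FV decapeptide, read at 430 nm after 320 nm excitation. The 20-min minus 0-min signal was scaled between DMSO/no-enzyme wells and ADEP (5.8 microM final).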
gsp ag – activates gsp, the McCune-Albright syndrome mutation. gsp mutant cells, cAMP HTRF, 30 min; control for the full effect not named in the record. Potency, µM (series often up to 76.9 µM), inactives show at the highest dose activation (cAMP increase), hits mostly activators. 340,000 tested, 0.13% active. AID 624287; active = well fitted activation curve with a large enough effect; inconclusive = small, poorly fitted or top-dose-only effect, or another doubt; inactive = no such curve, though single readings can be large or run the other way; cell line not stated here;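 also: phosphodiesterase inhibitor Ro 20-1724 added with compounds to block cAMP breakdown; potency is read from the fitted curve at half-maximal effect; nearly all actives have a fitted effect of over 60% in size; about a fifth of the inactives were tested at one dose only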
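Cells in DMEM/10% FBS with G418 were pretreated with compounds in DMSO plus […] (300 uM stock) for 30 min at 37C. cAMP was measured by HTRF (cAMP-d2 plus anti-cAMP antibody-K) after 30 min at room temperature.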
gsp antagonist – antagonizes gsp, the McCune-Albright syndrome mutation; gsp-mutant cells, cAMP HTRF, 30 min; control for the full effect not named in the record; Potency, µM (series often up to 76.9 µM), for the others: top-dose activity change, negative = inhibition, usual class: inhibitors; 340,000 tested, 0.4% active; AID 624288; active = falling curve of any shape with a large fitted effect; inconclusive = falling curve, mostly with a smaller effect; inactive = flat or rising curve; cell line not stated here;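 also: intracellular cAMP measured with PDE inhibitor Ro 20-1724 present during compound exposure; potency is read from the fitted curve at half-maximal effect; % is scaled to controls: 0 for no effect and ±100 for the full control effect; nearly all actives have a fitted effect of over 65% in size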
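Measurement of cellular cAMP by homogeneous time-resolved fluorescence following a 30 min compound exposure at 37C. The PDE inhibitor […] was present throughout; the assay buffer was DPBS with 0.05% BSA and 0.005% Tween 20.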
TRPV1 potentiator – enhances activation of the human vanilloid receptor TRPV1; 320,000 tested, 0.02% active; Q8NER1; potentiation, % at 8.33 µM; TRPV1-expressing cells, Fluo-8 calcium influx, capsaicin EC20 potentiation; host cell line not named in the record; control for the full effect not named in the record; AID 540277; active means potentiation above 80%; inconclusive means 30% to 80%; inactive means below 30%; also: 0% is about no effect
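TRPV1-expressing cells were cultured overnight at 35.5C and loaded with Fluo-8 calcium dye for 40 to 90 min at room temperature. After a 10 s baseline, compound was added and calcium influx was read kinetically for 3 min (ex 480/em 520 nm).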
TRPML1 blocker – human mucolipin-1 channel inhibition; Q9GZU1; TRPML1-inducible cells, Ca2+ dye fluorescence, FDSS; active compounds read low; inhibition of EC80 agonist-evoked calcium signal; activity change, negative = inhibition, % (no concentration beside the values); 390,000 tested, 0.02% active; in the data active means activity change below about -50%; inconclusive means about -30% to -50%; inactive means above about -30%;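 also: stimulus is agonist 54-4 at its EC80 concentration; % is scaled to controls: 0 for no effect and ±100 for the full control effect; compound concentration not given in the record; the text of the record puts the active cut at -80%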
Target sequence (Q9GZU1 whole entry, looked up): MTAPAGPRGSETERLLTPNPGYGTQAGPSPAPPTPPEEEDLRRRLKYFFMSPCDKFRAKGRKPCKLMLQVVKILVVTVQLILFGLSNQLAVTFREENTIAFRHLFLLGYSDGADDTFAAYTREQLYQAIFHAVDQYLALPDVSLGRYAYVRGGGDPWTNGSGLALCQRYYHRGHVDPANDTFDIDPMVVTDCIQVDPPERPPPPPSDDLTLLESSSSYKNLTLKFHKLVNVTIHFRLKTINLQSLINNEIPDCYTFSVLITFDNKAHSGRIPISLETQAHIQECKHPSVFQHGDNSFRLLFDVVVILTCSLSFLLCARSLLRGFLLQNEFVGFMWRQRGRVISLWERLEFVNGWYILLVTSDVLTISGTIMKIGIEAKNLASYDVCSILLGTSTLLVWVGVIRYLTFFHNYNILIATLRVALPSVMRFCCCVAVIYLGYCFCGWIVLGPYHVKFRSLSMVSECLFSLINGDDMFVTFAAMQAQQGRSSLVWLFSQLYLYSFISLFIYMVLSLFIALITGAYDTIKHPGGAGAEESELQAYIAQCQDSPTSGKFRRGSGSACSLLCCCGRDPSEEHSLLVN
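TRPML1-DL cells, Tet-induced overnight (~16 h, 37 °C) at 1,500 cells/well, were loaded with Ca8 no-wash dye plus quencher for 45-90 min at room temperature. Compounds were pinned during FDSS kinetic reading; agonist 54-4 at EC80 (4 uM final) then added.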
Sfp PPTase inh – Sfp phosphopantetheinyl transferase inhibition; Q9F4F7; Biochemical Sfp PPTase activity, qHTS; Potency, µM, without a hit: max response, negative = inhibition, most hits filed as inhibitors; 310,000 tested, 3.5% active; AID 1490; active = well fitted inhibition curve with a large enough effect; inconclusive = small, poorly fitted or top-dose-only effect, or another doubt; inactive = no such curve, though single readings can be large or run the other way;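 also: the enzyme is Sfp with the accession as filed and its product quenches rhodamine fluorescence; potency is read from the fitted curve at half-maximal effect; 0% = enzyme reaction without inhibitor and -100% = no enzyme wells; top concentration of the series not given in the record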
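Sfp 15 nM + cpd, 15 min RT; start w/ rhodamine-CoA 5 uM, BHQ-2-YbbR 12.5 uM (final); 50 mM Hepes pH 7.6, 10 mM MgCl2, 0.01% NP-40, 0.01% BSA; read 525/598 nm at 0 and 30 min.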
* marks the source's active call; other numbers are inactive results; ? = inconclusive; nt = not tested or not shown; [ ] = another dose, or the depositor's remark.

molecule,Menin MLL FP FL,ClpP mod,gsp ag,gsp antagonist,TRPV1 potentiator,TRPML1 blocker,Sfp PPTase inh
CC1CCN(C(=O)COc2ccccc2F)CC1,0.3,-1.2%,-21%,5%,-7,2,16%
COc1ccc(C)cc1Cn1c(S(C)(=O)=O)nc2ccccc21,2.9,-0.2%,-33%[inhibitor],-23%,-9,-2,-21%
Cc1c(C(=O)N2CCOCC2)c(S(=O)(=O)Nc2ccccc2)c(C)n1C,nt,1.7%,-4%,?,-9,-4,11%
O=C(Nc1ccccc1Cl)C1CCCN(S(=O)(=O)c2ccc(-n3cnnn3)cc2)C1 (centres undefined),-3.1,nt,-30%[inhibitor],-12%,-12,6,21%
Nc1nc(SCC(=O)Nc2ccc(C(F)(F)F)cc2)[nH]c(=O)c1NC(=O)c1ccc(F)c(F)c1,nt,-0.3%,5%[15.4 µM],7%,26,25,-4%
COc1ccc(/C=C/C(=O)N(CC(C)C)C2CCS(=O)(=O)C2)cc1 (centres undefined),nt,nt,-5%[15.4 µM],-12%,-19,6,nt
COc1cc(/C=C(\C#N)C(=O)NCC2CCCO2)ccc1OCC(N)=O (centres undefined),3.6,-16%,-4%[15.4 µM],-28%,-3,6,23%
CC(C)(C)c1ccc(C(=O)NCC(=O)OCC(=O)Nc2ccccc2[N+](=O)[O-])cc1,0.4,0.0%,?,0%,2,-29,-14%
COc1ccc(CCN2CCCC(CN(C)C(=O)c3cc(C)oc3C)C2)cc1 (centres undefined),-3.7,-1.0%,21%,6%,-9,2,16%
CN(C)c1ccsc1C(=O)NNS(=O)(=O)c1ccc(Cl)cc1,nt,-0.5%,-11%[15.4 µM],0%,nt,0,nt
O=C(c1ccc(S(=O)(=O)Nc2ccc(F)cc2)cc1)N1CCN(C(=O)c2ccco2)CC1,0.0,1.5%,-42%[inhibitor],?,-24,48,-1%
Cc1ccccc1C(=O)Nc1ccccc1Sc1ccccc1,1.2,?,22%,-9%,0,10,-3%
CCc1cccc(C)c1NC(=S)N1CCCCC1c1cccnc1 (centres undefined),5.3,1.1%,18%,-2%,1,nt,18%
COc1cccc(C2C(C#N)=C(N)N(c3ncn[nH]3)C3=C2C(=O)CCC3)c1 (centres undefined),1.4,0.7%,10%,2%,2,12,8%
CS(=O)(=O)N1Cc2ccccc2CC1C(=O)OCC(=O)Nc1ccc2ccccc2c1 (centres undefined),2.2,-3.9%,1%,?,4,0,12%
CN(CC(=O)Nc1ccc(F)cc1)CC(=O)N1CCCCC1,nt,0.8%,15%,8%,-2,11,nt
CCn1ncc(Br)c1C(=O)Nc1sc2c(c1C(=O)OC)CCC2,nt,-2.4%,-25%,-7%,nt,-10,nt
O=C(COC(=O)/C=C/c1ccco1)Nc1cc(S(=O)(=O)N2CCOCC2)ccc1Cl,nt,-3.6%,11%,-13%,nt,-3,nt
Nc1nc(SCC(=O)N2CCCc3ccccc32)[nH]c(=O)c1-c1ccccc1,-2.4,0.7%,-19%,-5%,2,1,-3%
CN(C(=O)c1ccccc1)C(=O)c1ccccc1,nt,-3.6%,17%,nt,nt,1,nt
COCCSc1ccccc1C(=O)Nc1nnc(C)s1,0.7,-0.4%,2%,8%,9,30,-1%
CCCCc1nc2cc(C(=O)N3CCCC3)ccc2o1,nt,-2.3%,-1%,2%,-40,17,1%
N#Cc1ccc(OCc2ccc(C(=O)O)o2)cc1,6.7,nt,7%,5%,0,29,20%
O=C1CCC[C@@H]2[C@H]3CCC[N+]4([O-])CCC[C@@H](CN12)[C@@H]34 (some centres undefined),-13,nt,0%,5%,30,8,6%
NC(=O)COC(=O)/C=C/c1ccc(S(=O)(=O)N2CCCCCC2)cc1,-1.1,nt,-7%,-2%,-11,5,7%
CCOc1ccccc1Nc1nc2ccccc2[nH]1,5.7,-7.0%,17%,-22%,-1,24,30%
Cc1csc(SCc2ccc(C(=O)O)cc2)n1,5.1,-0.5%,22%,-1%,1,-10,7%
Cc1nc(NCC2CC2)c2nnn(Cc3ccccc3)c2n1,0.4,-1.3%,-5%[15.4 µM],13%,16,-4,-8%
O=C(O)CNS(=O)(=O)/C=C/c1ccccc1,-0.2,nt,?,-13%,-2,10,10%
c1ccc(CSc2ncnc3c2sc2nc(N4CCOCC4)c4c(c23)CCCC4)cc1,0.2,-8.4%,-18%,20%,-6,46,-12%

Pulled by compound from the list above, two records:
molecule,Menin MLL FP FL,ClpP mod,gsp ag,gsp antagonist,TRPV1 potentiator,TRPML1 blocker,Sfp PPTase inh
Nc1nc(SCC(=O)N2CCCc3ccccc32)[nH]c(=O)c1-c1ccccc1,-2.4,0.7%,-19%,-5%,2,1,-3%
O=C(O)CNS(=O)(=O)/C=C/c1ccccc1,-0.2,nt,?,-13%,-2,10,10%

Next part.
molecule,Menin MLL FP FL,ClpP mod,gsp ag,gsp antagonist,TRPV1 potentiator,TRPML1 blocker,Sfp PPTase inh
COc1ccc(S(=O)(=O)N2CCC(C(=O)N[C@H](C(=O)NCc3ccco3)C(C)C)CC2)cc1,nt,-3.5%,-17%,?,7,1,-2%
CN(C)C(=O)N1CCCC(C(=O)NCCc2ccccc2)C1 (centres undefined),3.5,1.3%,-24%,10%,11,-8,11%
Cc1cc(C)nc(N2CCN(c3nnnn3-c3ccccc3)CC2)n1,-0.7,-6.4%,0%,-5%,-14,-7,20%
COc1ccc(N2CC(C(=O)N[C@H](C(=O)NC3CCCCC3)C(C)C)CC2=O)cc1 (some centres undefined),nt,0.7%,-4%,14%,2,-2,17%
COc1ccc(C(=O)N/C(=C/c2cccnc2)C(=O)Nc2cccc(C(C)=O)c2)cc1OC,-2.1,?,-5%[15.4 µM],-21%,13,3,17%
CCN1CCN(C(=O)c2ccc(Sc3ccccc3Cl)c([N+](=O)[O-])c2)CC1,-0.2,-0.9%,-3%,6%,-19,23,-11%
O=C(O)C1CCC(CNS(=O)(=O)c2ccccc2)CC1 (centres undefined),2.5,nt,-11%,1%,-8,2,14%
O=C(CSCc1ccc(Cl)cc1)NN=C1CCCCCC1,-3.1,-4.7%,3%,10%,-12,-7,17%
Cn1nc(C(=O)Nc2sccc2C(N)=O)ccc1=O,-1.8,-8.2%,-11%,6%,4,26,0%
Cc1onc(-c2ccccc2)c1C(=O)N1CCC(C)CC1,2.3,-0.5%,3%,7%,26,5,23%
CCN(CC(=O)Nc1cc(Cl)ccc1OC)CC(=O)NC1CCS(=O)(=O)C1 (centres undefined),-2.0,-0.9%,-18%,2%,0,-6,79µM*
O=C(c1ccc(S(=O)(=O)Nc2ccccc2)cc1)N1CCCC(C(F)(F)F)C1 (centres undefined),nt,-1.8%,29%,3%,6,-3,7%
c1ccc(-c2nnc(SCc3nc4ccccc4[nH]3)n2Cc2ccco2)cc1,3.8,-7.1%,0%,18%,-18,35,-2%
O=C(NNC(=O)C1CCN(Cc2ccccc2)CC1)c1cccs1,-1.6,nt,-2%[15.4 µM],14%,4,-2,6%
CC(C)NC(=S)N1CCN(c2ncccn2)CC1,2.2,-2.0%,-10%[15.4 µM],5%,8,7,13%

Compounds above that have a COOH group (4):
molecule,Menin MLL FP FL,ClpP mod,gsp ag,gsp antagonist,TRPV1 potentiator,TRPML1 blocker,Sfp PPTase inh
N#Cc1ccc(OCc2ccc(C(=O)O)o2)cc1,6.7,nt,7%,5%,0,29,20%
Cc1csc(SCc2ccc(C(=O)O)cc2)n1,5.1,-0.5%,22%,-1%,1,-10,7%
O=C(O)CNS(=O)(=O)/C=C/c1ccccc1,-0.2,nt,?,-13%,-2,10,10%
O=C(O)C1CCC(CNS(=O)(=O)c2ccccc2)CC1 (centres undefined),2.5,nt,-11%,1%,-8,2,14%

Further structures follow:
molecule,Menin MLL FP FL,ClpP mod,gsp ag,gsp antagonist,TRPV1 potentiator,TRPML1 blocker,Sfp PPTase inh
Cc1cc(-c2n[nH]c(=S)n2/N=C/C=C/c2ccco2)n[nH]1,10,nt,6%[15.4 µM],-11%,4,33,56µM*
Cc1cc2oc(=O)cc(CSc3nnc(-c4cccs4)o3)c2cc1C(C)C,16,-1.4%,-21%[15.4 µM],-4%,-6,10,-9%
CCCCn1c(N)c(N(CCOC)C(=O)c2cc(CC)c(C)s2)c(=O)[nH]c1=O,nt,-11%,?,3%,29,18,nt
Cc1ccc(CNC(=O)CCc2ccc(S(=O)(=O)NCC(C)C)cc2)cc1,0.1,nt,-2%[15.4 µM],nt,?,-5,16%
Cc1ccc2cccc(OCC(=O)N3CC(C)CC(C)C3)c2n1 (centres undefined),0.7,nt,22%[15.4 µM],5%,11,-5,19%
Cc1oc(-c2ccc(Cl)cc2)nc1CN1CCCC(C(=O)N2CCN(C(=O)c3ccco3)CC2)C1 (centres undefined),-1.1,-4.9%,21%,-2%,-8,-11,11%
CCc1ccc(-c2ccc(SCC(=O)NCC3CCCO3)nn2)cc1 (centres undefined),-1.2,32%,10%[15.4 µM],-9%,3,0,25%
CC(OC(=O)c1cccc(N2C(=O)c3ccccc3C2=O)c1)C(=O)Nc1ccc(N(C)C)cc1 (centres undefined),1.6,-1.7%,-14%,-20%,-8,15,-22%
CC1CCCCN1C(=O)COC(=O)/C=C/c1ccc2ccccc2n1 (centres undefined),-1.5,-19%,-43%,-10%,9,-3,-1%
C#CCOc1nc2c(c(=O)n(C)c(=O)n2C)n1Cc1ccccc1,4.5,2.9%,-51%[inhibitor],-27%,13,-7,-7%

Compound activity: PubChem, National Center for Advancing Translational Sciences (NCATS)
